Screening results (PubChem)
PV pol inh: poliovirus RNA polymerase inhibition. P03300. poliovirus polymerase elongation, fluorescence polarization; stronger effect = lower value. % elongation, % (compound at 16.7 µg/mL). 0.66% of 150,000 active. AID 588519; in the data active means % elongation below about 90%; further: some results filed as inactive read as strong as hits
Target sequence (P03300 1749-2209 limits assumed): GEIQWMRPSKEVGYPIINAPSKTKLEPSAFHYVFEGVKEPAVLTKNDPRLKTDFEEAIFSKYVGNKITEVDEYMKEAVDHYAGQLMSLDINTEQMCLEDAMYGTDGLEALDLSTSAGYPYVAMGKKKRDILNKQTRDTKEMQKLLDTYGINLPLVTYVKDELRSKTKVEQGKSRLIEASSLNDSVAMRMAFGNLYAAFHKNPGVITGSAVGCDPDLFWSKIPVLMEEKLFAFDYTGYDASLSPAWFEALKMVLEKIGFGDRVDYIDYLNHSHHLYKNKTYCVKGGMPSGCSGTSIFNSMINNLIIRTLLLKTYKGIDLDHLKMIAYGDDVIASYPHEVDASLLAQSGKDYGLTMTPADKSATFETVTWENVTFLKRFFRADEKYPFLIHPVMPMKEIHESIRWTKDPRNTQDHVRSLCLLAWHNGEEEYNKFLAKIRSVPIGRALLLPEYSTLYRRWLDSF
Mtb MbtI inh: inhibitors of Mycobacterium tuberculosis siderophore enzyme MbtI. P9WFX0. purified MbtI enzyme, fluorescence intensity read-out. inhibition, %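 (about 17 µg/mL by stock and volumes)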. 0.89% of 100,000 active. AID 493033;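 active means above 50% in both replicates, above 80% if mildly self-fluorescent; inactive means the rest, strongly fluorescent compounds included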;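 further: 0% = mean of negative and 100% = mean of positive controls; one replicate is shown; some compounds called inactive have numbers as strong as hits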
MenB inh: blocks the Mycobacterium tuberculosis MenB enzyme. MenB enzyme assay, absorbance read-out; some hits fall short of the stated cut. inhibition, %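 (about 12 µg/mL by stock and volumes)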. 0.43% of 100,000 active. AID 540299;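 active means mean of two replicates above 30%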;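 further: 0% = no compound and 100% = wells with inactive enzyme; the first replicate is given; strong numbers were not always called active; inactives centre near -10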
Target sequence (P9WNP5 whole entry, looked up): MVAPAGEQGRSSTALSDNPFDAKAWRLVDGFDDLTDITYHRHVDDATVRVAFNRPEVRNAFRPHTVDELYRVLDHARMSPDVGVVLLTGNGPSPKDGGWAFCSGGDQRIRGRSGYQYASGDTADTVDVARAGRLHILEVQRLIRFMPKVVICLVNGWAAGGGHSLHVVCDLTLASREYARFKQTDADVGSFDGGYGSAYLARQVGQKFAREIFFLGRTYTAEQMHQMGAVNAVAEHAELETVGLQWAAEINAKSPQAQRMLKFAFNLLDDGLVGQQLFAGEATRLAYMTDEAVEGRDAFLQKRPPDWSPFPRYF
PV pol inh intensity: recorded beside PV pol inh, whose call it bears; % elongation; measured here: total intensity read-out; formula for this scale not given here;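 total fluorescence in place of polarization; lower means less elongation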
Starred values were filed as active, the others as inactive; / = no result given.

SMILES	PV pol inh	PV pol inh intensity	Mtb MbtI inh	MenB inh
CC1CCCC(NC(=O)COC(=O)c2n[nH]c3ccccc23)C1C (stereo unspecified)	100	106	5	/
Cc1ccc2c(c1C)NC(C(=O)O)C1CC=CC21 (stereo unspecified)	103	147	89	7
Cc1cc(C(=O)NNc2ccc(C(C)C)cc2)n(C(C)(C)C)n1	101	98	4	0
CC1CC(C)CN(C(=O)Cn2cnc3c2c(=O)n(C)c(=O)n3C)C1 (stereo unspecified)	103	106	5	7
COc1cc2nc(NC(=O)c3ccccc3)[nH]c(=O)c2cc1OC	103	101	-2	-40
CCCC[N+]1(C)C2CCC1CC(O)C2 (stereo unspecified)	102	105	4	-12
Cc1nccn1C(=O)c1ccccc1C(=O)O	101	101	-12	-45
CCOC(=O)c1oc2ccccc2c1N=Cc1c(O)n(CC)c(=S)n(CC)c1=O	105	104	-19	6
CN=c1scc(-c2ccc(Br)s2)n1/N=C1\C(=O)Nc2ccccc21	47	245	-5	-37
CCC(=O)Nc1nc(-c2ccc(OC)cc2)cs1	105	98	3	-17
c1ccc(CCCc2nc(-c3ccccn3)no2)cc1	101	101	2	-11
O=C(O)CCn1c(=O)n(CCC(=O)O)c2c(Cl)cc(Cl)cc21	93	96	/	12
O=C(O)CCNc1ncnc2ccccc12	107	99	/	-24
CN(C)C(Cn1c(=S)[nH]c2ccccc2c1=O)c1ccccc1 (stereo unspecified)	104	110	-9	-11
Cc1cc(C)n2nc(N3C(=O)CCC3=O)nc2n1	104	103	3	-14
Cc1ccc(Cn2c(=O)c3ccccc3n3c(SCC4CCCO4)nnc23)cc1 (stereo unspecified)	/	/	7	5
COCCNC(=O)Cn1cc(C=C2C(=O)N(C)C(=O)N(C)C2=O)c2ccccc21	79	164	0	-12
Cc1nc2ccccc2n1CC(=O)Nc1cccc(Br)c1	100	98	3	/
Cc1cc(C)cc(N2C(=O)CSC2c2cccs2)c1 (stereo unspecified)	105	105	-4	-13
NC(=O)c1ccsc1NC(=O)C1=NN(c2ccccc2)C(=O)CC1	102	95	-4	-12
COc1ccc(CNC(=O)CN2N=C(c3ccc(Cl)cc3)CCC2=O)c(OC)c1	103	107	-1	1
C/C(=N\N=C1/NC(=O)CS1)c1cccc2ccccc12	102	107	3	-16
O=C1NC(=O)N(C2CCCCC2)C(=O)/C1=C\c1ccc(-c2ccc(C(=O)O)cc2)o1	100	101	-7	-48
CN(C)CCNCc1ccc(-c2ccccc2)o1	102	100	13	61*
N#CC1=C(N)Oc2n[nH]c(-c3ccccc3)c2C12C(=O)Nc1ccccc12 (stereo unspecified)	105	103	3	-20

Additional results follow:
SMILES	PV pol inh	PV pol inh intensity	Mtb MbtI inh	MenB inh
COc1cc(-c2nnc(COC(=O)C3(c4ccccc4)CC3)o2)cc(OC)c1OC	103	101	-14	-13
Cc1onc(-c2c(Cl)cccc2Cl)c1/C(N)=N/OC(=O)N(C)C	104	95	3	-17
Cc1cc(NC(=O)CN2CCc3ccccc3C2)nc2c1c(=O)oc1ccccc12	102	101	12	-19
CCN(Cc1ccccc1)Cc1c(O)ccc2oc(C)c(C(=O)NC3CCCC3)c12	103	104	-16	-11
CCN(C(=O)c1cn(-c2ccccc2)nc1-c1cccs1)c1ccccc1	103	106	-5	-32
FC(F)(F)c1cc(-c2ccco2)nc(N2CCCC2)n1	100	104	-7	-43
NC(=O)CN1C(=O)c2cccc3cccc1c23	113	120	/	-34
CCC(C)n1c(=O)[nH][nH]c1=S (stereo unspecified)	103	109	51*	-8
CS(=O)(=O)Nc1ccccc1C(=O)OCC(=O)N1CCC(c2ccccc2)=N1	106	112	105	-24
CCOC(=O)c1cc2c(=O)n3ccccc3nc2n(Cc2ccccc2)c1=NC(C)=O	100	101	17	-66
CC1=CC(C)(C)N(C(=O)Nc2ccc(C)cc2)c2ccccc21	101	96	58	-22
Oc1ccc(-c2nc(-c3ccccc3)c(-c3ccc(O)cc3)[nH]2)cc1	103	104	98	14
C=CCn1c(=N)c(-c2nc3ccccc3s2)cc2c(=O)n3ccccc3nc21	96	126	5	5
O=C(CC(O)(c1ccccc1)C(F)(F)F)c1ccccc1 (stereo unspecified)	103	99	13	-20
Cc1ccc(N(C(C)C(=O)O)S(C)(=O)=O)cc1C (stereo unspecified)	100	103	-18	-9
CN(C)S(=O)(=O)c1ccc(NC2Sc3ccccc3NC2=O)cc1 (stereo unspecified)	100	100	-4	-45
CCOc1ccc(C(=O)COC(=O)Cc2n[nH]c(=O)c3ccccc23)cc1	109	114	6	1
CCOc1cccc(/C=N/n2c(=O)[nH]c3ccccc3c2=O)c1OC	98	100	3	1
c1ccc(CNn2cnnc2)cc1	103	106	-11	/
Cc1ccc(NC(=O)CSC2=NC3(CCCCC3)Nc3ccccc32)cc1	100	100	5	-33
CCCCN(C)S(=O)(=O)c1ccc(-c2ccc(=O)[nH]n2)s1	101	102	15	-2
O=C1c2ccc(Oc3ccc4c(c3)C(=O)N(c3ncccn3)C4=O)cc2C(=O)N1c1ncccn1	100	103	-8	21
Cc1ccc(C(=O)c2coc3c2cc(O)c2ccccc23)cc1	101	102	-9	-85
COC(=O)CNC(=O)c1cccc(F)c1	101	100	1	2
Cc1[nH][nH]c(=O)c1C(c1ccncc1)C(C#N)C#N (stereo unspecified)	99	89	/	-34

The listing continues.
SMILES	PV pol inh	PV pol inh intensity	Mtb MbtI inh	MenB inh
FC(F)(F)Sc1ccc2noc(-c3ccccc3)c2c1	103	103	-20	3
O=C(Cn1c(=O)oc2ccccc21)NC1CCCc2ccccc21 (stereo unspecified)	100	100	-20	-4
Cc1cccc(CCNC(=O)C2CCN(S(=O)(=O)c3ccc4[nH]c(=O)ccc4c3)CC2)c1	103	98	3	-8
Cc1c(Cl)cccc1-n1ncnc1-c1ccc(N(C)C)cc1	100	100	-4	-2
O=C(CCCN1C(=O)CCC1=O)Nc1ccc2c(c1)OCCO2	103	104	-9	-21
O=C(CCC(=O)N1CCSc2ccccc21)NC1CCCC1	99	103	-7	10
CC(C)(C#N)NCc1ccco1	102	101	8	-1
CC(C)[N+]1(C)C2CCC1CC(OC(=O)C(CO)c1ccccc1)C2 (stereo unspecified)	99	102	-10	-1
O=c1c(=NNc2nn[nH]n2)c(=O)c2ccccc12	-20*	-11*	16	-474
O=C(O)c1cccc(S(=O)(=O)NNc2ccccc2C(F)(F)F)c1	/	/	16	12
CC(=O)NC(=O)c1nnn(-c2ccc(C)cc2)c1NC(C)=O	101	102	5	10
Cc1cccc(OCCCn2c(=O)sc3ccccc32)c1	97	93	-4	-17
CCOC(=O)c1c(CC(C#N)(c2ccccc2)c2ccccc2)oc2ccc(OC)cc12	106	122	/	-31
Cc1n[nH]c(C)c1CC(=O)NCCC1=CCCCC1	102	103	-9	4
COc1cc(C(=O)OCC(=O)c2cc(C)n(C)c2C)cc(NC(=O)c2ccco2)c1OC	108	108	-10	8
O=C(CC1SC(=O)N(CN2CCOCC2)C1=O)Nc1cccc(O)c1 (stereo unspecified)	101	95	-4	-7
COC(=O)c1ccc(-c2ccco2)n1Cc1cccc(F)c1	104	105	88	-29
CCCc1cc(=O)[nH]c(SCc2nc3ccccc3[nH]2)n1	103	110	/	-19
COc1ccc(OC(C)C(=O)NCCC2=CCCCC2)cc1 (stereo unspecified)	99	101	6	-22
CC1CCCC(C)N1C(=O)CSc1nnc(-c2ccccc2)n1N (stereo unspecified)	100	105	-14	-10
COC(=O)c1ccn(C(=O)c2ccnn2C)n1	105	107	/	-4
Cc1ccc(S(=O)(=O)N2CCN(S(=O)(=O)c3c(C)n[nH]c3C)CC2)cc1C	96	97	-2	-28
O=C(Nc1ccccc1)OCC1CCCN2CCCCC12 (stereo unspecified)	100	104	-23	-3
COc1ccc(-c2nc3cc(NC(=O)c4ccccc4)ccc3o2)cc1	103	103	11	-15
COC(=O)Nc1ccc(S(=O)(=O)N2CCCc3ccccc32)cc1	101	106	-10	-23

(continued)
SMILES	PV pol inh	PV pol inh intensity	Mtb MbtI inh	MenB inh
O=S(c1nc2ccccc2s1)N1CCOCC1 (stereo unspecified)	104	106	/	-15
COc1ccc(-c2nnn(CC(=O)N(CC(=O)NC3CCCC3)c3ccccc3)n2)cc1OC	105	103	-4	11
CN(C)S(=O)(=O)c1ccc(C(=O)OCC(=O)c2ccc3c(c2)NC(=O)CO3)cc1	102	106	-2	-8
CCCc1cc(=O)[nH]c(SCC(=O)NCCc2ccccc2)n1	101	105	-6	0
COc1ccc(CC(=O)N2CCC3(CC2)Nc2ccccc2S(=O)(=O)N3)cc1	102	102	-16	-4
COc1ccc(NC(=O)c2ccco2)cc1NC(=O)Cc1ccccc1	104	109	/	-18
CC(C)C1C(=O)Nc2ccc(S(=O)(=O)NCCc3ccccc3)cc21 (stereo unspecified)	101	104	-35	-6
CCOC(=O)C1(c2csc(N)n2)COC(=O)C1 (stereo unspecified)	104	113	/	11
CCOc1ccccc1OCCCC(=O)Nc1cccc(-n2cnnn2)c1C	105	107	-6	-2
Cc1nc2ccc(C(=O)O)cc2c2c1CC(C)S2 (stereo unspecified)	103	107	88	3
Cc1ccc2nc3c(cc2c1)c(=O)oc1ccccc13	102	102	2	-3
O=C(C1CC(c2ccccc2F)=NO1)N1CCCc2ccccc21 (stereo unspecified)	98	103	-6	3
CC1CCCCC1N1CN=C(Nc2nc3ccccc3s2)NC1 (stereo unspecified)	100	104	-5	-2
Cc1cc(=O)n(Cc2ccccc2)c(=O)n1Cc1ccccc1	104	102	-13	-9
CC(Oc1ccccc1)C(=O)N1CCN=C1SCc1ccccc1 (stereo unspecified)	102	106	-4	-31
O=C(Oc1ccccc1)Oc1ccc2oc(=O)sc2c1	100	98	14	-20
CCN(CC)c1ccc(C2(C(F)(F)F)NN(c3ccccc3)C(N)=C2C#N)cc1 (stereo unspecified)	97	108	/	-16
S=C(Nc1ccc2c(c1)OCCO2)Nc1ccc2c(c1)OCO2	101	103	4	-2
CNC(=S)N1C2CCC1CC(NC(=O)NC13CC4CC(CC(C4)C1)C3)C2 (stereo unspecified)	105	104	-8	-15
CCCCN1C(C)=CC(=C2C(=O)NC(=S)NC2=O)C=C1C	103	111	4	-37
CCOC(=O)c1ccc2c(c1)C(=O)N(c1cccc(C)c1)C2=O	100	103	6	14
O=C(O)CCCN1C(=O)C2C3c4ccccc4C(c4ccccc43)C2C1=O (stereo unspecified)	102	100	-3	-47
CCN(CC)S(=O)(=O)c1ccc2c(c1)n(CC)c(=O)n2CC	103	103	-3	-12
N#Cc1c2c(c(O)[nH]c1=O)CN(Cc1ccccc1)CC2	104	109	/	7
COC(=O)c1cc2cc(Br)ccc2s1	104	104	2	5
CCCCNC(=O)c1c[nH]c2c(F)cccc2c1=O	102	103	8	-8

2 successive compounds from above, for reference:
SMILES	PV pol inh	PV pol inh intensity	Mtb MbtI inh	MenB inh
Cc1cc(=O)n(Cc2ccccc2)c(=O)n1Cc1ccccc1	104	102	-13	-9
CC(Oc1ccccc1)C(=O)N1CCN=C1SCc1ccccc1 (stereo unspecified)	102	106	-4	-31

Among those listed so far, 12 contain an aryl methoxy group.
SMILES	PV pol inh	PV pol inh intensity	Mtb MbtI inh	MenB inh
COc1cc2nc(NC(=O)c3ccccc3)[nH]c(=O)c2cc1OC	103	101	-2	-40
CCC(=O)Nc1nc(-c2ccc(OC)cc2)cs1	105	98	3	-17
COc1ccc(CNC(=O)CN2N=C(c3ccc(Cl)cc3)CCC2=O)c(OC)c1	103	107	-1	1
COc1cc(-c2nnc(COC(=O)C3(c4ccccc4)CC3)o2)cc(OC)c1OC	103	101	-14	-13
CCOc1cccc(/C=N/n2c(=O)[nH]c3ccccc3c2=O)c1OC	98	100	3	1
CCOC(=O)c1c(CC(C#N)(c2ccccc2)c2ccccc2)oc2ccc(OC)cc12	106	122	/	-31
COc1cc(C(=O)OCC(=O)c2cc(C)n(C)c2C)cc(NC(=O)c2ccco2)c1OC	108	108	-10	8
COc1ccc(OC(C)C(=O)NCCC2=CCCCC2)cc1 (stereo unspecified)	99	101	6	-22
COc1ccc(-c2nc3cc(NC(=O)c4ccccc4)ccc3o2)cc1	103	103	11	-15
COc1ccc(-c2nnn(CC(=O)N(CC(=O)NC3CCCC3)c3ccccc3)n2)cc1OC	105	103	-4	11
COc1ccc(CC(=O)N2CCC3(CC2)Nc2ccccc2S(=O)(=O)N3)cc1	102	102	-16	-4
COc1ccc(NC(=O)c2ccco2)cc1NC(=O)Cc1ccccc1	104	109	/	-18
